VACV mCherry inh – vaccinia inhibition (mCherry reporter); Vaccinia virus mCherry reporter infection, fluorescence; about a quarter of the inactives have no number; actives 0.63% (n = 310,000); Potency, µM (highest dose often 36.5 µM), for the others: at the top dose activity change, negative = inhibition, most hits filed as inhibitors; AID 720579; active = well fitted inhibition curve with a large enough effect; inconclusive = small, poorly fitted or top-dose-only effect; inactive = no such curve, though single readings can be large or run the other way; tested in A549 cells; also: nearly all actives have a fitted effect of over 35% in size; inactives centre near -10
VACV Venus inh – vaccinia inhibition (Venus reporter). Vaccinia virus Venus reporter expression, fluorescence. Potency, µM (series often up to 36.5 µM), for the others: at the top dose activity change, negative = inhibition, usual class: inhibitors. actives 0.46% (n = 330,000). AID 720580; active means well fitted inhibition curve with a large enough effect; inconclusive means small, poorly fitted or top-dose-only effect; inactive means no such curve, though single readings can be large or run the other way; tested in A549 cells; also: nearly all actives have a fitted effect of over 30% in size; inactives centre near -10
An asterisk follows results filed as active; [ ] = remark or other dose. % is scaled to controls: 0 for no effect and ±100 for the full control effect; potency is read from the fitted curve at half-maximal effect.

Screening Cc1cccn2cc(-c3cccc(NC(=O)c4cccs4)c3)nc12 returned VACV mCherry inh -23% and VACV Venus inh -22%.
`COc1ccc(S(=O)(=O)N(CC(=O)Nc2ccc(C)cc2)c2ccc(C)cc2)cc1OC` gave VACV mCherry inh -8% and VACV Venus inh 10%.
N#Cc1c(NC(=O)c2cc(-n3cnnc3)ccc2Cl)sc2c1CCCC2 was read as VACV Venus inh -25%.
Cc1cc(OCC(=O)NCC2CCC(C(=O)O)CC2)c2c3c(c(=O)oc2c1)CCC3 (stereo not given) was read as VACV mCherry inh -2% and VACV Venus inh -8%.
Screening Cc1cccc2c3c(ccc12)C1=C(C(=O)C3=O)C(C)CO1 (stereo not given) returned VACV mCherry inh -14% and VACV Venus inh -2%.
COc1ccc(-c2ccc(-c3cc(=O)oc4cc(OC)c(OC)c(OC)c34)cc2)cc1 was read as VACV mCherry inh inactive and VACV Venus inh -4%.
Cc1ccc(Cl)cc1N1CCN(C(=O)Cn2ncn3cccc3c2=O)CC1 was read as VACV mCherry inh -3% and VACV Venus inh -7%.
`Cc1ccc2c(CN3CCN(C(=O)c4ccc(F)cc4)CC3)cc(=O)oc2c1` gave VACV mCherry inh -10% and VACV Venus inh -15%.
For CCCC[C@@H]1CNC(=S)N1CCc1cccc(F)c1 the results were VACV mCherry inh inconclusive and VACV Venus inh -19%.
`Cc1cccc(/C(N)=N/OC(=O)CCc2ccccc2)c1` gave VACV mCherry inh inactive and VACV Venus inh -14%.
CC(=O)Nc1c(C)nn(-c2ccccc2)c1N1CCC(C(=O)NCc2ccc(Cl)cc2)CC1 was read as VACV mCherry inh -3%[7.34 µM] and VACV Venus inh -5%[7.34 µM].
Cc1cccc(NC(=O)CSc2nc3ccc(NC(=O)CCc4ccccc4)cc3s2)c1 was read as VACV mCherry inh -1% and VACV Venus inh -16%.
Screening CC(CO)NS(=O)(=O)c1cccc(Cl)c1F (stereo not given) returned VACV mCherry inh inactive and VACV Venus inh -7%.
Screening CCOc1ccc(C(=O)NCC(=O)N2CCc3ccccc3C2)cc1OCC returned VACV mCherry inh inactive and VACV Venus inh -20%.
For COc1ccc(/C=C(\NC(=O)c2ccc(C)cc2)C(=O)Nc2c(C)n(C)n(-c3ccccc3)c2=O)cc1 the results were VACV mCherry inh inactive and VACV Venus inh -26%.
Screening COc1ccccc1/C=c1\sc2nc(-c3ccccc3OC)nn2c1=O returned VACV mCherry inh -13% and VACV Venus inh -7%.
For CCCNC(=O)c1ccc2nc(CCc3ccccc3)oc2c1 the results were VACV mCherry inh -15% and VACV Venus inh -6%.
`CC(=O)N1CCN(S(=O)(=O)c2cccc(C(=O)Nc3ccc4c(c3)CCC4)c2)CC1` gave VACV mCherry inh -24% and VACV Venus inh -11%.
For COc1ccc(C(=O)NCC2Cc3cc(F)cc(-c4cncnc4)c3O2)cc1 (stereo not given) the results were VACV mCherry inh inactive and VACV Venus inh -3%.
`O=C(NN=Cc1ccccc1O)C(O)(c1ccccc1)c1ccccc1` gave VACV mCherry inh inactive and VACV Venus inh -13%.
Screening CC1Cc2ccccc2N1C(=O)Cn1cc([N+](=O)[O-])ccc1=O (stereo not given) returned VACV mCherry inh inactive and VACV Venus inh -6%.
`Cc1c(Cl)cccc1NC(=O)c1cccc(NC(=O)CCC(=O)O)c1` gave VACV Venus inh 5%.
Screening Cc1ccc(NC(=O)CSc2nc(=O)n3cc(C)ccc3n2)c(C)c1 returned VACV mCherry inh -15% and VACV Venus inh -15%.
For C/C=C/C=C\C(=O)Nc1cccc(C2=NOC3(C2)C[C@H](C(N)=O)N(C(=O)CC#N)C3)c1 (stereo not given in full) the results were VACV mCherry inh inactive and VACV Venus inh 0%.
For Cc1ccc(-n2cccn2)cc1 the results were VACV mCherry inh -7% and VACV Venus inh -3%.
Cc1cc(C)c(S(=O)(=O)N2CCC(n3c(C(F)(F)F)nc4cccnc43)CC2)c(C)c1 was read as VACV mCherry inh 1% and VACV Venus inh 11%.
`COc1ccc(C(=O)O)cc1S(=O)(=O)Nc1cc(C(F)(F)F)ccc1N1CCCCC1` gave VACV mCherry inh -9% and VACV Venus inh -16%.
`CCCCn1c(N)c(C(=S)NC(=O)CC(C)(C)C)c(=O)n(C)c1=O` gave VACV mCherry inh inactive and VACV Venus inh -14%.
For Cc1c(Cl)cccc1NC(=O)c1cc(S(=O)(=O)N2CCCCC2)cn1C the results were VACV mCherry inh -13% and VACV Venus inh -9%.
For O=S(=O)(c1ccc(Cl)cc1)c1nc(-c2cccs2)oc1SCc1ccccc1F the results were VACV mCherry inh -15% and VACV Venus inh -19%.
For CC(=O)c1ccc(NC(=O)CSc2ccc3nc(-c4ccccc4)cn3n2)cc1 the results were VACV mCherry inh 1% and VACV Venus inh -9%.
For CC(=O)N1CCN(C(=O)c2ccc(S(=O)(=O)Nc3cccc(C(F)(F)F)c3)cc2)CC1 the results were VACV mCherry inh -19% and VACV Venus inh -9%.
CC1=C(O)C(=O)OC1c1c(Cl)cccc1Cl (stereo not given) was read as VACV mCherry inh -10% and VACV Venus inh -1%.
For CC(=O)c1ccc(NC(c2ccc(F)cc2)c2nnc(-c3ccccc3)o2)cc1 (stereo not given) the results were VACV mCherry inh -7% and VACV Venus inh 2%.
Screening O=C(O)c1ccc(C(=O)c2ccc3c(c2)C(=O)N(Cc2ccco2)C3=O)cc1 returned VACV mCherry inh -15% and VACV Venus inh -15%.
Screening CNC(C)C#Cc1ccc2c(=O)c3ccccc3oc2c1 (stereo not given) returned VACV mCherry inh inconclusive and VACV Venus inh inconclusive.
O=C(NC(=S)Nc1ccc(N2CCOCC2)cc1)c1ccc(Cl)cc1 was read as VACV mCherry inh inactive and VACV Venus inh -8%.
For Cc1nc2scc(C)n2c(=O)c1S(=O)(=O)NCC1CCN(Cc2ccc(F)cc2)CC1 the results were VACV mCherry inh -3% and VACV Venus inh -6%.
`O=c1oc(-c2cccc(S(=O)(=O)N3CCOCC3)c2)nc2ccccc12` gave VACV Venus inh -12%.
`O=C(Nc1ccc(F)cc1)c1cccc(N2C(=O)C3C4C=CC(C5CC45)C3C2=O)c1` (stereo not given) gave VACV mCherry inh inactive and VACV Venus inh -19%.

Already shown: 13 of the compounds above.
Screening CC1Cc2ccccc2N1C(=O)Cn1cc([N+](=O)[O-])ccc1=O (stereo not given) returned VACV mCherry inh inactive and VACV Venus inh -6%.
`Cc1c(Cl)cccc1NC(=O)c1cccc(NC(=O)CCC(=O)O)c1` gave VACV Venus inh 5%.
Screening Cc1ccc(NC(=O)CSc2nc(=O)n3cc(C)ccc3n2)c(C)c1 returned VACV mCherry inh -15% and VACV Venus inh -15%.
For C/C=C/C=C\C(=O)Nc1cccc(C2=NOC3(C2)C[C@H](C(N)=O)N(C(=O)CC#N)C3)c1 (stereo not given in full) the results were VACV mCherry inh inactive and VACV Venus inh 0%.
For Cc1ccc(-n2cccn2)cc1 the results were VACV mCherry inh -7% and VACV Venus inh -3%.
Cc1cc(C)c(S(=O)(=O)N2CCC(n3c(C(F)(F)F)nc4cccnc43)CC2)c(C)c1 was read as VACV mCherry inh 1% and VACV Venus inh 11%.
`COc1ccc(C(=O)O)cc1S(=O)(=O)Nc1cc(C(F)(F)F)ccc1N1CCCCC1` gave VACV mCherry inh -9% and VACV Venus inh -16%.
`CCCCn1c(N)c(C(=S)NC(=O)CC(C)(C)C)c(=O)n(C)c1=O` gave VACV mCherry inh inactive and VACV Venus inh -14%.
For Cc1c(Cl)cccc1NC(=O)c1cc(S(=O)(=O)N2CCCCC2)cn1C the results were VACV mCherry inh -13% and VACV Venus inh -9%.
For O=S(=O)(c1ccc(Cl)cc1)c1nc(-c2cccs2)oc1SCc1ccccc1F the results were VACV mCherry inh -15% and VACV Venus inh -19%.
For CC(=O)c1ccc(NC(=O)CSc2ccc3nc(-c4ccccc4)cn3n2)cc1 the results were VACV mCherry inh 1% and VACV Venus inh -9%.
For CC(=O)N1CCN(C(=O)c2ccc(S(=O)(=O)Nc3cccc(C(F)(F)F)c3)cc2)CC1 the results were VACV mCherry inh -19% and VACV Venus inh -9%.
CC1=C(O)C(=O)OC1c1c(Cl)cccc1Cl (stereo not given) was read as VACV mCherry inh -10% and VACV Venus inh -1%.

Next part.
Screening COC(=O)c1ccc(-c2cccc3c2OC(CNC(=O)/C=C/c2ccc(OC)c(OC)c2)C3)nc1 (stereo not given) returned VACV mCherry inh -26% and VACV Venus inh -26%.
Screening O=S(=O)(NCCc1ccccc1F)c1cccc(S(=O)(=O)N2CCOCC2)c1 returned VACV mCherry inh -8% and VACV Venus inh -5%.
For CC(=O)c1cccc(NC(=O)CN2C(=O)C3C4C=CC(C4)C3C2=O)c1 (stereo not given) the results were VACV mCherry inh -7% and VACV Venus inh 3%.
`CC[C@H](C)C1NC(=O)[C@H](CC(=O)O)NC(=O)c2cc([N+](=O)[O-])cc(I)c2NCCC(C(N)=O)NC1=O` (stereo not given in full) gave VACV mCherry inh inactive and VACV Venus inh -9%.
For N/C(Cc1ccc(Cl)cc1Cl)=N\OC(=O)c1ccccc1 the results were VACV mCherry inh -4% and VACV Venus inh -5%.
Screening CCOC(=O)c1ccc(N2C(=O)c3[nH]nc(-c4ccc(C)cc4)c3C2c2cccc(F)c2)cc1 (stereo not given) returned VACV mCherry inh inconclusive and VACV Venus inh -22%.
For C=CCn1c(=O)n(C(=O)OCC)c2cc(Br)ccc21 the results were VACV mCherry inh inactive and VACV Venus inh 7%.
Screening COc1ccccc1C(=O)NC(=O)COC(=O)C1CC1C (stereo not given) returned VACV mCherry inh 0% and VACV Venus inh 2%.
`CC1=NN(c2ccccc2)C(=O)/C1=C/c1cn(C)c2ccccc12` gave VACV mCherry inh -15% and VACV Venus inh -5%.
COc1ccc(C(C)NC(=O)c2ccc(Br)cc2)cc1OC (stereo not given) was read as VACV mCherry inh inactive and VACV Venus inh -12%.
COC(=O)c1cccc(NC(=O)CC2C(=O)NCCN2C(=O)Nc2ccccc2)c1 (stereo not given) was read as VACV mCherry inh -13% and VACV Venus inh -18%.
`CCOc1ccc(-c2oc3cc(Cl)ccc3c(=O)c2O)cc1OC` gave VACV mCherry inh 28µM* and VACV Venus inh -24%.
`O=S(=O)(Nc1nc2ccccc2nc1Cl)c1ccc2c(c1)OCCO2` gave VACV mCherry inh -13% and VACV Venus inh -3%.
Screening O=C(c1ccc2nc[nH]c2c1)N1CCN(c2ncc(C(F)(F)F)cc2Cl)CC1 returned VACV mCherry inh inconclusive and VACV Venus inh inconclusive.
Screening O=C(NCc1ccncc1)C1CCCN(S(=O)(=O)c2ccc(Br)cc2)C1 (stereo not given) returned VACV mCherry inh -6% and VACV Venus inh -24%.
For CC(=O)N1CCCSC1=Nc1ccccc1 the results were VACV mCherry inh -6% and VACV Venus inh -15%.
COC(=O)c1ccc(NC(=O)CNc2ccccc2)cc1 was read as VACV mCherry inh -4% and VACV Venus inh -8%.
`CC(=O)N1CCC2(CC1)CC(=O)c1cc(OCC(=O)N3CCN(C)CC3)ccc1O2` gave VACV mCherry inh inactive and VACV Venus inh -4%.
COc1ccc(-n2c(/C=C3\C(=O)Nc4ccccc43)nc3ccccc3c2=O)cc1 was read as VACV mCherry inh inactive and VACV Venus inh -12%.
`CCOc1ccc(C(=O)Nc2cccc(C(=O)O)c2C)cc1Cl` gave VACV mCherry inh inactive and VACV Venus inh -8%.
CCOc1ccc(C(=O)c2cc([N+](=O)[O-])ccc2Cl)cc1 was read as VACV Venus inh -20%.
`Cc1ccccc1S(=O)Cc1ccc(C(=O)NCCN2CCOCC2)o1` (stereo not given) gave VACV mCherry inh 5%[7.34 µM] and VACV Venus inh 15%[7.34 µM].
COc1cccc(CNC(=O)C(NS(=O)(=O)c2cccs2)C(C)C)c1 (stereo not given) was read as VACV mCherry inh -10% and VACV Venus inh 1%.
`O=C1CC(c2ccco2)=Nc2ccccc2N1` gave VACV mCherry inh inactive and VACV Venus inh -1%.
`CC(C)Nc1ncnc2c1cnn2-c1ccccc1` gave VACV mCherry inh 10% and VACV Venus inh -8%.
CCC(=O)N1CCc2cc(Br)cc(S(=O)(=O)CCC(=O)NCCc3ccc(C)cc3)c21 was read as VACV mCherry inh -4% and VACV Venus inh -2%.
`CCC(=O)Oc1ccc2c(C)cc(=O)oc2c1C(=O)CC` gave VACV mCherry inh inactive and VACV Venus inh -19%.
`NC(=O)Cn1nc(-c2ccccc2)nc1-c1ccccc1` gave VACV mCherry inh -12% and VACV Venus inh -2%.
Screening CC(C)N1CCC(N2CCN(CCCn3cccn3)CC2CCO)CC1 (stereo not given) returned VACV mCherry inh -19% and VACV Venus inh 1%.
Screening Cc1c(C(=O)Nc2ccc(C(=O)O)cc2)nnn1-c1ccccc1 returned VACV mCherry inh 1% and VACV Venus inh -6%.
CCOc1ccc(NCc2cccn2-c2nnc(N3CCC(C(=O)NCc4ccc(C)cc4)CC3)s2)cc1 was read as VACV mCherry inh inconclusive and VACV Venus inh inconclusive.
Screening O=C1Nc2ccccc2C1Cc1ccccc1 (stereo not given) returned VACV mCherry inh -3% and VACV Venus inh -1%.
CCN(C[C@H]1N[C@@](Cc2ccccc2)(C(=O)OC)[C@H]2C(=O)N(C)C(=O)[C@@H]12)C(=O)Nc1ccc(F)cc1 was read as VACV mCherry inh inactive and VACV Venus inh 1%.
COc1cc2cccc(OC)c(=O)c2c(OC)c1OC was read as VACV mCherry inh 6% and VACV Venus inh 2%.
COc1ccc(CS(=O)c2nc(C)cc(C)c2S(C)(=O)=O)cc1 (stereo not given) was read as VACV mCherry inh -8% and VACV Venus inh -1%.
CCOC(=O)c1ccc(CNC(=O)Cn2nnc(-c3ccccc3)n2)o1 was read as VACV mCherry inh inactive and VACV Venus inh -13%.
For CC(NC(=S)NCc1ccc(F)cc1)C12CC3CC(CC(C3)C1)C2 (stereo not given) the results were VACV mCherry inh inconclusive and VACV Venus inh -24%.
